Bioassay records (PubChem)
GALR2 agonist – GALR2 receptor agonists, primary screen, cell-based; Galanin receptor type 2 (Homo sapiens), O43603; GALR2-expressing cells, agonist activation read-out; activation, %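 (tested at 5 µM)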; hit rate 0.48% among 140,000; AID 803, 2007;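 active = above mean plus 3 SD of all compounds, about 5% in these data, not always enough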;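 also: 0% = vehicle buffer wells and 100% = reference agonist at full effect; tested in CHO reporter cells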
Target sequence (O43603 whole entry, looked up): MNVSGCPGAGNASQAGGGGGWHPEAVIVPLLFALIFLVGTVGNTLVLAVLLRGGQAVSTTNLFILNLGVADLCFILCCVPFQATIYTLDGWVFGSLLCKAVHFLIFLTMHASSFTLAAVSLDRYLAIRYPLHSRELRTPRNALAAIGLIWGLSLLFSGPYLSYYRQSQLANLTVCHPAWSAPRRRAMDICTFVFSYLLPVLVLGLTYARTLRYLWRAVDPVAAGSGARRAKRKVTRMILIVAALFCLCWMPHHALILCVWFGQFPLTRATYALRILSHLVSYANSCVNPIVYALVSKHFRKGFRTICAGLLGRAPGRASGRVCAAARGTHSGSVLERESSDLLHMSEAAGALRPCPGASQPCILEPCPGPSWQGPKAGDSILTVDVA
HSV augment – enhancers of HSV replication in host cells, fold increase, host cell viability; HSV replication augmentation in cells; maximum fold increase; hit rate 0.005% among 220,000; AID 1956, 2009;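 active = peak rise of 1.5-fold or more in the series; tested in PC3 cells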;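 also: first round at 10 µM; read as green reporter fluorescence; hits show the peak of a series up to 25 µM; 1 = signal of infected wells without compound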
INS promoter inh – inhibitors of insulin promoter-driven GFP, primary screen, imaging, TRM-6 cells (human fetal islet line), eGFP reporter, cell count. AID 1273, 2008. inhibition, % at 2 µM. reporter expression induced with tamoxifen. hit rate 0.9% among 130,000;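 active = inhibition above the mean plus 3 SD, with well images judged a real hit on visual review, cut at about 60% in these data, passing the limit was not always enough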
RGS16-Gao – modulators of RGS16 binding to Galphao, primary screen, biochemical, human proteins, multiplexed bead flow cytometry; Regulator of G-protein signaling 16 (Homo sapiens) + Guanine nucleotide-binding protein …; bead-based flow cytometry RGS16-Galphao binding, fluorescence; actives lie on both sides; binding response (% of control), % at 10 µM; hit rate 0.38% among 220,000; AID 1441, 2008;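 active = below 25% or above 175%, edge rows of some plates excepted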;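 also: Galphao activated by GDP with aluminum fluoride before binding; 100% = wells without compound and 0% = beads without RGS; some results beyond the cut were filed as inactive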
Target sequence (O15492 whole entry, looked up): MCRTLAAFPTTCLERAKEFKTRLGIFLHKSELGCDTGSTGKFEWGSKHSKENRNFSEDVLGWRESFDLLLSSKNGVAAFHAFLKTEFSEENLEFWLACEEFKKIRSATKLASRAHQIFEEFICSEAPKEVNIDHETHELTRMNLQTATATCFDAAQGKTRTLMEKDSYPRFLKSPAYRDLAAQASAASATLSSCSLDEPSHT
Target sequence (P09471 whole entry, looked up): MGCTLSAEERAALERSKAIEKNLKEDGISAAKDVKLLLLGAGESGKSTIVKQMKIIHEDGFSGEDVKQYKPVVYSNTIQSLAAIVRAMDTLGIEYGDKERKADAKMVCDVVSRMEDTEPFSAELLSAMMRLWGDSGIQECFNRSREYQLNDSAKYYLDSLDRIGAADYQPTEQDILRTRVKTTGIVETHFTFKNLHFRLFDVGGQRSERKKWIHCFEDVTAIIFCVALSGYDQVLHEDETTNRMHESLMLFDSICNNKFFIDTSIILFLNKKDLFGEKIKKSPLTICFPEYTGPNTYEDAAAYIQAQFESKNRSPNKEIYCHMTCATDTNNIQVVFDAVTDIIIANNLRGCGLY
PKD1 inh – inhibitors of human PKD1 kinase, biochemical, fluorescence polarization | Serine/threonine-protein kinase D1 (Homo sapiens), Q15139 | hit rate 0.056% among 200,000 | inhibition, %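 (about 10 µM by stock and volumes)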 | PKD1 kinase fluorescence polarization assay;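 active = inhibition of 50% or more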;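 also: controls were vehicle for no effect and a reference inhibitor for full effect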
INS promoter inh cell count – further read-out of INS promoter inh, marked with its call; normalized cell count, %; measured here: cell count, toxicity; reference of the scale not given here;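 cells exposed to compound for 48 h; stained nuclei by imaging scaled within each plate; lower means fewer cells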
HSV augment primary fold – further read-out of HSV augment, marked with its call; fold increase; compound at 10 µM; measured here: primary screen fold increase 10 uM; tested in PC3 cells;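 GFP signal in the first replicate; 1 = infected wells without compound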
An asterisk follows results filed as active; i = inactive; nt = not tested or not shown. An unsorted share of the library, and some 1.2% of all compounds hit somewhere here.

compound | RGS16-Gao | PKD1 inh | HSV augment primary fold | INS promoter inh cell count | GALR2 agonist | INS promoter inh | HSV augment
COc1ccccc1NC(=O)COc1ccc(Br)cc1CNC1CCCC1 | 102 | 9 | 1 | nt | nt | nt | i
CC(=O)Nc1ccc(-c2nc(C)c(C(C)=O)n2O)cc1 | 102 | -2 | 1.1 | 127 | -1.2 | -36 | i
COC(=O)CCSc1cc(NCCOC(C)=O)c([N+](=O)[O-])c2nonc12 | 80 | -6 | 0.98 | 85 | -1.2 | 19 | i
CC1CC(C)CN(C(=O)CSCC(=O)Nc2nc(-c3cccs3)cs2)C1 (stereo not drawn) | 102 | -5 | nt | nt | -2.5 | nt | nt
O=C1c2ccccc2C(=O)N1CCC1=CCCCC1 | 103 | -2 | 0.78 | 154 | -0.8 | -12 | i
O=C(O)c1ccccc1C(=O)c1ccc2c(c1)N(Cc1ccc(Cl)c(Cl)c1)C(=O)CO2 | 101 | 2 | 1.1 | 70 | nt | -72 | i
CC(=O)c1ccc(OC(C)C)c(CC(C(N)=O)C(N)=O)c1 | 101 | -3 | 1 | 76 | -3.5 | 24 | i
O=C(COC(=O)C1CC(=O)N(Cc2ccccc2)C1)c1ccc(Br)cc1 (stereo not drawn) | 86 | 1 | 1 | 59 | -0.4 | 14 | i
CN(C)C(=O)N1CCC(C(=O)NCc2ccccc2Cl)CC1 | 66 | -1 | 0.59 | nt | -3.1 | nt | i
CC1CCCCN1S(=O)(=O)c1ccc(N(C(=O)c2cnccn2)C(C(=O)NC2CCCC2)c2cccs2)cc1 (stereo not drawn) | 106 | -6 | 0.99 | 108 | 0.6 | 5 | i

Next records follow:
compound | RGS16-Gao | PKD1 inh | HSV augment primary fold | INS promoter inh cell count | GALR2 agonist | INS promoter inh | HSV augment
CCn1c(SCC(=O)N/N=C/C=C\c2ccco2)nc2ccccc21 | 99 | -8 | 1.1 | 67 | -0.6 | -39 | i
CN(C)S(=O)(=O)NCc1ccc2c(c1)OCO2 | 99 | -7 | 0.97 | 81 | -1.1 | -59 | i
NC(=S)N/N=C/c1ccc(Br)o1 | 107 | -2 | 1 | 39 | nt | -227 | i
O=[N+]([O-])c1ccc(Sc2n[nH]c(-c3ccc(Cl)cc3Cl)n2)nc1 | 93 | 4 | 1.1 | 126 | -4.2 | 14 | i
Cc1csc(SCC(=O)NC(=O)NCc2ccccc2)n1 | 102 | 4 | 0.91 | 84 | -2.0 | 51 | i
COc1ccc(C2CC(c3cccc(OC)c3OC)n3nnnc3N2)cc1 (stereo not drawn) | 97 | 0 | 0.73 | 84 | -0.5 | 21 | i
O=C(CN1C2=NCCN2c2ccccc21)c1ccc(Br)cc1 | 113 | 2 | 0.95 | nt | -0.9 | nt | i
NC(=O)C1CCN(C(=O)CSc2nc3ccccc3o2)CC1 | 104 | 2 | nt | 74 | -1.5 | -37 | nt
Cc1ccc(N/C=C/C(=O)c2sc(-c3ccccc3)nc2C)cc1 | 93 | -17 | 0.98 | 164 | -2.6 | 22 | i
CC(=O)c1cc2c(cc1NC(=O)CCNC(=O)c1ccccc1Cl)OCO2 | 99 | -9 | 1 | 183 | -4.9 | 26 | i

Continuation:
compound | RGS16-Gao | PKD1 inh | HSV augment primary fold | INS promoter inh cell count | GALR2 agonist | INS promoter inh | HSV augment
COC(=O)C1(S(=O)(=O)c2ccc(C)cc2)CCOCC1 | 106 | -12 | 0.86 | 113 | -1.3 | 0 | i
O=C(COc1ccc(Cl)cc1)c1ccc(O)cc1O | 100 | nt | 0.92 | nt | nt | nt | i
CCc1nnc(NC(=O)CC(=O)Nc2ccccc2C(=O)O)s1 | nt | 0 | 0.83 | 142 | -0.2 | 22 | i
Cc1cc(C(=O)NC(C)c2ccncc2)cs1 (stereo not drawn) | 99 | -4 | 1.3 | 80 | -3.4 | -338 | i
Cc1nonc1OCCCNc1ccc([N+](=O)[O-])cc1Cl | 107 | -5 | 0.85 | 164 | nt | -17 | i
C=C(C)c1cccc(C(C)(C)NC(=O)N2CCC(C(N)=O)CC2)c1 | 110 | 2 | 0.96 | 63 | nt | 14 | i
CSCCC(NC(=O)c1ccccc1)C(=O)OCC(=O)N(C)CCC#N (stereo not drawn) | 101 | -6 | 0.99 | nt | nt | nt | i
O=C(Nc1ccccc1)c1cc([N+](=O)[O-])ccc1NCc1cccnc1 | 99 | 4 | 0.99 | 76 | -0.8 | -18 | i
Cc1cc(C)c(S(=O)(=O)Nc2ccnc(-c3cccnc3)n2)c(C)c1 | 101 | 2 | 0.87 | nt | nt | nt | i
Cc1cc(C(=O)NNC(=S)NCc2ccco2)nn1C | 85 | -3 | 1.1 | 97 | nt | 0 | i

Looked up one by one from the list above, six records:
compound | RGS16-Gao | PKD1 inh | HSV augment primary fold | INS promoter inh cell count | GALR2 agonist | INS promoter inh | HSV augment
COC(=O)C1(S(=O)(=O)c2ccc(C)cc2)CCOCC1 | 106 | -12 | 0.86 | 113 | -1.3 | 0 | i
C=C(C)c1cccc(C(C)(C)NC(=O)N2CCC(C(N)=O)CC2)c1 | 110 | 2 | 0.96 | 63 | nt | 14 | i
Cc1cc(C(=O)NC(C)c2ccncc2)cs1 (stereo not drawn) | 99 | -4 | 1.3 | 80 | -3.4 | -338 | i
CSCCC(NC(=O)c1ccccc1)C(=O)OCC(=O)N(C)CCC#N (stereo not drawn) | 101 | -6 | 0.99 | nt | nt | nt | i
CCc1nnc(NC(=O)CC(=O)Nc2ccccc2C(=O)O)s1 | nt | 0 | 0.83 | 142 | -0.2 | 22 | i
Cc1cc(C(=O)NNC(=S)NCc2ccco2)nn1C | 85 | -3 | 1.1 | 97 | nt | 0 | i

Carrying on:
compound | RGS16-Gao | PKD1 inh | HSV augment primary fold | INS promoter inh cell count | GALR2 agonist | INS promoter inh | HSV augment
O=C(COC(=O)c1cc[n+]([O-])cc1)Nc1ccc(SC(F)F)cc1 | 95 | nt | 1 | nt | nt | nt | i
CN(C)c1cccc2c(/C=N/O)ccc(N(C)C)c12 | 142 | -2 | 1.1 | 83 | nt | -44 | i
Nc1nc(SCc2nc3scc(-c4ccccc4)c3c(=O)[nH]2)n[nH]1 | 109 | -2 | 1.2 | 100 | -2.9 | -42 | i
CCOC(=O)c1c(-c2ccccc2)oc2ccc(O)c(CN3CCOCC3)c12 | 117 | 4 | 0.97 | 95 | -3.7 | -41 | i
N#C/C(=N\Nc1c(Cl)cccc1Cl)C(=O)NN | 98 | 5 | 0.97 | 81 | -2.0 | -16 | i
O=C(CSc1nnc(CNc2ccc(F)cc2)o1)N1CCCc2ccccc21 | 107 | -2 | 0.91 | nt | -1.2 | nt | i
Cc1ccc(CNc2nc(N)c([N+](=O)[O-])c(Nc3cccc(F)c3)n2)cc1 | 102 | 3 | 0.89 | 110 | -0.9 | -38 | i
Cc1cc(=O)n2[nH]c(C)cc2n1 | 96 | 1 | 1.1 | 102 | nt | -33 | i
S=C1NC(c2cccs2)=CC(c2ccc(Br)cc2)N1 (stereo not drawn) | 102 | -1 | 0.99 | 107 | -1.3 | 13 | i
O=[n+]1c2c(n([O-])c3c1CCC3)CCCC2 | 185 | 1 | 0.97 | 79 | -0.7 | -36 | i

Given with values under each structure: part of the list above.
The line under a structure holds: RGS16-Gao | PKD1 inh | HSV augment primary fold | INS promoter inh cell count | GALR2 agonist | INS promoter inh | HSV augment
CCOC(=O)c1c(-c2ccccc2)oc2ccc(O)c(CN3CCOCC3)c12
    117 | 4 | 0.97 | 95 | -3.7 | -41 | i
N#C/C(=N\Nc1c(Cl)cccc1Cl)C(=O)NN
    98 | 5 | 0.97 | 81 | -2.0 | -16 | i

(cont.)
compound | RGS16-Gao | PKD1 inh | HSV augment primary fold | INS promoter inh cell count | GALR2 agonist | INS promoter inh | HSV augment
CCCc1c(C)nc2ccccc2c1SCCC#N | 99 | 4 | 0.7 | 103 | -0.1 | 42 | i
O=C(/C=C/c1ccco1)N(Cc1ccccc1)C1CCS(=O)(=O)C1 (stereo not drawn) | 97 | nt | 0.97 | nt | nt | nt | i
Cc1c(Cl)cccc1NC(=S)NCCC(C)C | 99 | -8 | 0.71 | 93 | -2.1 | -26 | i
COCCNC(=O)Cn1c(=O)n(Cc2ccc(C(=O)NCCc3ccc(OC)c(OC)c3)cc2)c(=O)c2ccccc21 | 104 | 2 | 0.99 | nt | nt | nt | i
Cc1ccc(C(=O)Nc2ccc(N3CCN(S(C)(=O)=O)CC3)cc2)cc1 | 100 | -7 | 0.78 | 151 | -1.8 | 13 | i
COc1ccc(/C=N\NS(=O)(=O)c2ccc(Br)cc2)cc1COc1ccccc1[N+](=O)[O-] | 119 | 5 | 0.66 | 102 | -1.0 | 10 | i
O=C(Cn1ccc(C(F)(F)F)n1)N/N=C/c1ccc(N2CCOCC2)cc1 | 96 | 2 | 0.95 | nt | nt | nt | i
Cc1ccc(OCC(=O)Nc2cnn(CCCC(=O)O)c2)c([N+](=O)[O-])c1 | 98 | 1 | 1.1 | nt | nt | nt | i
CC(C(=O)NC1CCCC1)N(C(=O)c1snc(C(N)=O)c1N)c1ccc2c(c1)OCCO2 (stereo not drawn) | 104 | -11 | 0.9 | 55 | -2.0 | -145 | i
Cc1nc2cc(NC(=O)Nc3ccccc3Cl)ccc2n1C | 79 | -3 | 0.89 | 100 | nt | -57 | i

Following part
compound | RGS16-Gao | PKD1 inh | HSV augment primary fold | INS promoter inh cell count | GALR2 agonist | INS promoter inh | HSV augment
CN(C)c1ccnc2sc(C(=O)c3ccc(Br)cc3)c(N)c12 | 100 | -2 | 1.1 | 145 | nt | 21 | i
Cc1ccc(S(=O)(=O)Nc2nc3ccc(S(=O)(=O)N4CCCC4)cc3s2)cc1 | 104 | -3 | 0.96 | 77 | -0.6 | 62 | i
Cn1ncc(C#N)c1NC(=O)C1CC(c2ccc(Cl)cc2)=NO1 (stereo not drawn) | 106 | -12 | 0.96 | 117 | -0.3 | -26 | i
CC(=O)N(OCc1ccc(OC(C)C)c(Cl)c1)C(C)=O | 91 | nt | 0.98 | nt | nt | nt | i
CC1(C)Cc2ccccc2-c2nnc(-c3ccco3)n21 | 105 | 2 | 1.1 | 100 | -0.7 | -17 | i
CCO[C@@H]1OC(C(=O)NC2CC2)=C[C@H](c2csc3ccccc23)[C@H]1CCCO | 102 | 6 | 0.69 | nt | nt | nt | i
COc1ccc(N2CN=C3SCC(=O)N3C2)cc1 | 100 | -2 | 0.78 | 173 | -1.6 | 68 | i
CCOC(=O)C(CC)Sc1nnc2c3cc(C)ccc3n(C)c2n1 (stereo not drawn) | 60 | -3 | 0.92 | 112 | 0.3 | 13 | i
O=C(N/N=C/c1ccccc1[N+](=O)[O-])c1ccc2nc[nH]c2c1 | 99 | nt | 1.3 | nt | nt | nt | i
O=C(CN1C(=O)CSc2ccccc21)N1CCc2ccccc21 | 75 | -10 | nt | 54 | -0.8 | 7 | nt

Going on with the list:
compound | RGS16-Gao | PKD1 inh | HSV augment primary fold | INS promoter inh cell count | GALR2 agonist | INS promoter inh | HSV augment
COc1ccc(NC(=O)c2cc(=O)[nH]c(=O)[nH]2)cc1S(=O)(=O)Nc1ccccc1Cl | 98 | 10 | 0.92 | nt | nt | nt | i
Cn1cccc1Cc1nnc(SCC(=O)Nc2ccc3c(c2)OCCO3)n1-c1ccc(F)cc1 | 103 | -9 | 0.94 | nt | 0.3 | nt | i
Cc1cc(NC(=O)CCCSc2nc(-c3ccco3)cc(C(F)(F)F)n2)no1 | 102 | -9 | 0.91 | 121 | -4.5 | -59 | i
CC1CCN(C(=O)CC#N)CC1 | 94 | nt | 1.1 | nt | nt | nt | i
CC(Oc1ccccc1)C(=O)N1CCN=C1SCc1cccc(F)c1 (stereo not drawn) | 97 | nt | 1.1 | nt | nt | nt | i
O=C(CCCOc1ccccc1)NCCc1nc2ccccc2[nH]1 | 105 | -2 | 1.1 | nt | nt | nt | i
O=c1c2c3c(sc2nc2n1CCCCC2)CCCCC3 | 105 | -5 | 0.85 | nt | -2.0 | nt | i
CCOC(=O)C1(CC2CCCCO2)CCN(Cc2nc(-c3cccs3)oc2C)CC1 (stereo not drawn) | 100 | 6 | 1.1 | nt | nt | nt | i
COc1ccc(CSc2nc3ccccc3c(=O)[nH]2)cc1F | 98 | -6 | 0.85 | 99 | nt | -29 | i
CCN(CC(=O)NC1CCS(=O)(=O)C1)Cc1nc2c(Br)cc(Br)cc2c(=O)[nH]1 (stereo not drawn) | 98 | -4 | 1 | nt | nt | nt | i
Cc1ccc(NC(=O)CCSc2ccccc2)c(C)c1 | 94 | 3 | 0.96 | 48 | nt | -95 | i
FC(F)Oc1cccc2cccnc12 | 81 | 1 | 0.94 | 42 | -1.9 | -375 | i
O=C(O)C1CC=CCC1C(=O)c1ccccc1 (stereo not drawn) | 70 | -5 | 0.82 | 111* | 0.8 | 66* | i
